# Screening results deposited in PubChem by National Center for Advancing Translational Sciences (NCATS).
# TsaE inh – displaces an ADP probe from E. coli YjeE (TsaE) | P0AF67 | purified YjeE, fluorescence polarisation of a bound ADP probe | Potency, µM | 71,000 tested, 0.05% active | AID 605; active = well fitted falling curve; inconclusive = weaker or top-dose-only fall, or a rising curve; inactive = flat or poorly fitted curve;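 also: top concentration of the series not given in the record; excess ADP was the control for the full effect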
#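 Fluorescence polarization of a BODIPY Texas Red–ADP probe (2 uM) bound to purified YjeE (10 uM) was read after 15 min room-temperature incubation with compounds. Loss of polarization marks inhibitors; ADP serves as titrated control.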
# Bst PK mod – alters activity of Bacillus stearothermophilus pyruvate kinase; AID 361; Potency, µM; partly purified Bacillus stearothermophilus pyruvate kinase, luminescence ATP production; ribose 5-phosphate activator present at AC10; 51,000 tested, 1.2% active; in the data active means potency below about 11 µM; inconclusive means mostly about 12 µM to 25 µM; inactive means weaker than that;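 the screen sought inhibitors and activators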;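 also: potency is read from the fitted curve at half-maximal effect; scaled between full activation by ribose 5 phosphate and full inhibition by luteolin; about four in five hits inhibit and the cells do not say which; series up to 57 µM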
# Starred values were filed as active, the others as inactive; i = inactive; ? = inconclusive; · = no result given. The list is partial (hit frequency here may not be typical).
item	molecule	Bst PK mod	TsaE inh
1	O=C(O)C(Cc1c[nH]c2ccccc12)NS(=O)(=O)c1cccc2nsnc12 (stereo not drawn)	>25.6	·
2	CN(CC(=O)Nn1cnnc1)S(=O)(=O)c1cc(Cl)ccc1Cl	·	i
3	CCCCCCN(C(=O)CCCCCN1C(=O)NC(c2ccc(-c3ccccc3)cc2)C(C(=O)OCc2ccccc2)=C1C)C(C(=O)NCCCC)c1ccccn1 (stereo not drawn)	·	i
4	O=C(NC1CCCCC1)C1CCN(S(=O)(=O)c2cccc3cccnc23)CC1	·	i
5	Cc1ccc(NC2c3ncccc3C(=O)N2Cc2ccc(F)cc2)cc1 (stereo not drawn)	>57	i
6	CCCC(NC(=O)c1ccccc1)c1nc2ccccc2n1Cc1ccc(C(=O)OC)o1 (stereo not drawn)	>57	i
7	Cc1ccc2nc(NC(=O)COC(=O)c3ccco3)sc2c1	·	i
8	CCOC(=O)N1CCC(=C(C#N)C(=O)Nc2cc(OC)ccc2OC)CC1	>57	i
9	C=CCOC(=O)C1CC=CCC1C(=O)Oc1ccc(F)cc1F (stereo not drawn)	·	i
10	CCN(CC)S(=O)(=O)c1ccc(NC(=O)c2ccccn2)cc1	>57	i
11	O=C(Nc1ccc2c(c1)nc1n2CCOC1)C1CCCCC1	·	i
12	CC1CN(C(=O)c2cnn3c(C(F)F)cc(-c4ccccc4)nc23)CC(C)O1 (stereo not drawn)	>57	i
13	Cc1nccc2[nH]c(=O)c(C(=O)NCCCN(C)C3CCCCC3)cc12	>57	i
14	Cc1ccc(C(CCN)c2ccco2)cc1 (stereo not drawn)	>57	i
15	CC(C)CCn1c(SCC#N)nc2c(sc3ccccc32)c1=O	>57	i
16	CCn1c(SCC(=O)c2ccc(O)c(O)c2)nnc1-c1ccccc1OC	>57	i
17	CCS(=O)(=O)N1CCC(C(=O)N2CCN(c3ccccc3)CC2)CC1	>57	i
18	Cc1ccsc1/C=N/n1cnc2sc(C)c(C)c2c1=O	>57	i
19	CC1CN(c2nc3c(c(=O)n(C)c(=O)n3C)n2Cc2c(Cl)cccc2Cl)CC(C)O1 (stereo not drawn)	>57	i
20	O=C(Nc1nccs1)C1CCCN1S(=O)(=O)c1ccc(Cl)cc1 (stereo not drawn)	10.4*	i
21	CCc1c(C)nc2c(C#N)c(C)[nH]n2c1=O	>57	i
22	O=C(c1cc(C(F)(F)F)cc(C(F)(F)F)c1)N1CCC2(CC1)CN(Cc1ccccc1)C2	·	i
23	Cc1cc2nc(-c3cccc(NC(=O)c4ccc(Br)o4)c3C)oc2cc1C	·	i
24	CN(C)/C=N/c1c(C#N)cnn1-c1ccccc1	·	i
25	CCc1c(C)nc2ncnn2c1N1CCC(C(=O)N2CCN(c3ccc(F)cc3)CC2)CC1	>57	i
26	CCCCC1CC(CSc2ncn[nH]2)OC1=O (stereo not drawn)	·	i
27	CN(C)CCC(=O)[C@@]1(O)CC[C@H]2[C@H]3CC=C4C[C@@H](O)CC[C@]4(C)[C@H]3CC[C@]21C	·	i
28	CCOc1ccc(NC(=O)CN2CCN(CC(=O)Nc3ccc4c(c3)OCCO4)CC2)cc1	>57	i
29	c1ccc(CSCCc2ccncc2)cc1	·	i
30	COC(=O)c1ccc(NC(=O)Nc2ccc(F)cc2)cc1	i	i
31	CCOc1ccc(NC(=O)CN2C(=O)C3CCCN3C2=O)cc1 (stereo not drawn)	·	i
32	CC(=O)Nc1ccc(S(=O)(=O)N(C2=NCC(C)S2)c2ccccc2)cc1 (stereo not drawn)	>57	i
33	COc1ccccc1CNc1ncnc2ccc(-c3cccnc3)cc12	·	i
34	CCn1cc(/C=N/O)c(C)n1	>25.6	·
35	Cc1nc(SCC(=O)CC(=O)OC(C)C)c(C#N)c(C)c1C	>57	i
36	Cc1ccc2[nH]c3c(=O)n(CCCN4CCN(C)CC4)cnc3c2c1	>57	i
37	Cc1nnc(N2CCOCC2)c2ccccc12	>25.6	·
38	CCOc1ccc(-c2nnc3sc(COc4ccccc4)nn23)cc1	>25.6	·
39	Cc1cc(Cl)ccc1OCC(=O)N1CCCCC1	>57	i
40	CC(C)(C)OC(=O)N1CCC(C(=O)O)CC1	>57	i
41	C=CC1=C(C(=O)O)N2C(=O)[C@@H](NC(=O)/C(=N\OCC(=O)O)c3csc(N)n3)[C@@H]2SC1	·	i
42	O=c1oc2ccccc2n1CCn1c2ccccc2c2nc3ccccc3nc21	>57	i
43	O=C1CCCc2c1nc(-c1ccccc1)n2O	>57	i
44	COc1ccc(-c2nnc3ccc(SCC(N)=O)nn23)cc1OC	>57	i
45	O=C(Nc1ccc(Nc2ccccc2)cc1)c1ccco1	i	i
46	CC(C)CCNC(=O)NC(=O)CSc1nnc(-c2ccccc2Br)o1	>57	i
47	O=C(CC1N=C2c3ccccc3N=C(SCc3ccc(F)cc3)N2C1=O)NCc1ccco1 (stereo not drawn)	>57	i
48	CCOc1ccc(C(=O)Nc2ccc(N3CCCC3)cc2)cc1	·	i
49	Cc1c2oc3c(C)ccc(C(=O)N[C@@H]4C(=O)N[C@H](C(C)C)C(=O)N5CCC[C@H]5C(=O)N(C)CC(=O)N(C)[C@@H](C(C)C)C(=O)O[C@@H]4C)c3nc-2c(C(=O)N[C@@H]2C(=O)N[C@H](C(C)C)C(=O)N3CCC[C@H]3C(=O)N(C)CC(=O)N(C)[C@@H](C(C)C)C(=O)O[C@@H]2C)c(N)c1=O	·	i
50	COc1ccc(N2CCN(C(c3cccc(OC)c3OC)c3nnnn3C3CCCC3)CC2)cc1 (stereo not drawn)	>57	i
51	O=S(=O)(Nc1nc2ccccc2nc1Nc1ccc2c(c1)OCCO2)c1cccs1	i	i
52	COc1ccccc1C1CC(c2ccc(Cl)cc2Cl)Nc2nc(N)nn21 (stereo not drawn)	·	i
53	CC1=C(C(=O)OCCOC(C)C)C(c2cc3c(cc2Br)OCO3)C2=C(CCCC2=O)N1 (stereo not drawn)	>57	i
54	Cn1nnnc1-c1cc(Br)ccc1NC(=O)c1ccccc1	>25.6	·
55	Cc1ccc(OCC(=O)Nc2cccc(O)c2)cc1C	·	i
56	Cc1ccc(CS(=O)(=O)CCC(=O)NCc2ccccn2)cc1	>57	i

# Going on with the list.
item	molecule	Bst PK mod	TsaE inh
57	CCCNCc1cc(OCC)c(OCC(N)=O)cc1Br	>57	i
58	Cc1ccc(-n2nc3c(c2NC(=O)c2ccc(OC(C)C)cc2)CS(=O)C3)cc1 (stereo not drawn)	>57	i
59	O=c1cc(-c2ccccc2)nc(N2CCN(Cc3ccccc3)CC2)[nH]1	>57	i
60	Cn1c(=O)c2[nH]c(CN(Cc3ccccc3)Cc3ccccc3)nc2n(C)c1=O	>57	i
61	O=C(OCc1nnc(-c2ccc(Cl)cc2)o1)c1ccc(=O)n(Cc2ccccc2)n1	9.84*	i
62	Nc1ccc2c3c(cccc13)C(=O)NC2=O	·	i
63	Cc1ccc(C)c(Cn2nnc3c(=O)[nH]c(C4CCCN(C(=O)CC(C)C)C4)nc32)c1 (stereo not drawn)	>57	i
64	CN1CCc2c(sc3c2c(=O)n(-c2ccccc2)c2nnc(SCc4ccc(F)cc4)n32)C1	>57	i
65	Cc1cc2nc([C@H](C)C(=O)c3ccc(Cl)cc3)c(=O)[nH]c2cc1C	·	i
66	NC(=O)c1ccc(F)cc1	>57	i
67	CN1C[C@@H](O)[C@@H](O)[C@@H](O)[C@@H]1CO	·	i
68	CC(C)[C@H](NC(=O)Nc1ccc2c(c1)OCCO2)C(=O)O	>11.4	i
69	c1ccc(C2=NCCCN2)cc1	>57	i
70	O=C(NCc1ccco1)c1ccc(S(=O)(=O)c2cccc(S(=O)(=O)N3CCOCC3)c2)cc1	·	i
71	O=C(CCN1C(=O)c2ccncc2C1=O)Nc1ccc2c(c1)OCCO2	>57	i
72	Cc1c(NC(=O)c2nn(C)c(=O)c3ccccc23)c(=O)n(-c2ccccc2)n1C	>57	i
73	COc1ccc(NC(=O)N2CCCC2C(=O)Nc2ccc(C)cc2)cc1 (stereo not drawn)	>57	i
74	COc1ccc(NC(=O)c2c(SC)nsc2SC)cc1	>57	i
75	COc1ccc(C(=O)OC(C)CN2CCN(C)CC2)cc1OC (stereo not drawn)	>11.4	·
76	Cc1sc2nc(SCC(=O)NCc3ccco3)n(C)c(=O)c2c1C	·	i
77	O=C(Nc1ncc2c(n1)CC(c1ccco1)CC2=O)c1ccc(Cl)cc1 (stereo not drawn)	>57	i
78	CC(C)CC(NC(N)=O)C(=O)OCC(=O)NC(=O)NC1CCCC1 (stereo not drawn)	>57	i
79	COc1ccc(-n2c(=O)c(-c3cccs3)nc3cnc(N4CCOCC4)nc32)cc1	·	i
80	O=C(c1ccco1)N1CCCSC1=Nc1ccccc1	>57	i

# From compound 78 up to 79, copied from above:
item	molecule	Bst PK mod	TsaE inh
78	CC(C)CC(NC(N)=O)C(=O)OCC(=O)NC(=O)NC1CCCC1 (stereo not drawn)	>57	i
79	COc1ccc(-n2c(=O)c(-c3cccs3)nc3cnc(N4CCOCC4)nc32)cc1	·	i

# Going on with the list.
item	molecule	Bst PK mod	TsaE inh
81	Cn1c(-c2ccc3ccccc3n2)nc2cnccc21	?	i
82	CCOC(=O)N1CCN(S(=O)(=O)c2cc(Cl)ccc2Cl)CC1	?	i
83	O=C(NC1CCCC1)C1CCCN(S(=O)(=O)c2cnc[nH]2)C1 (stereo not drawn)	·	i
84	CCOC(=O)C1CCN(Cc2cnc(NC(=O)OC)s2)CC1	>57	i
85	COC(=O)c1c(-c2cccnc2)csc1NC(=O)c1cc(C)on1	?	i
86	Cc1cc(NC(=O)CSc2ccc(-c3nc4cc(C)c(C)cc4[nH]3)cn2)no1	i	i
87	c1cncc(-c2ccc3ncnc(N4CCNCC4)c3c2)c1	·	i
88	CCNc1ncc2nc(C)c(=O)n(CCOC)c2n1	·	i
89	COC(=O)CSc1nnc(-c2cccs2)n1-c1ccc(Cl)cc1	>57	i
90	NCCC(=O)N[C@@H](Cc1cnc[nH]1)C(=O)O	·	i
91	CCOC(=O)C1=C(C)NC2=C(C(=O)CC(c3ccc(OC)c(OC)c3)C2)C1c1ccc(C)o1 (stereo not drawn)	>57	i
92	Cc1nc2ncnn2c(N2CCN(C(c3ccccc3)c3ccccc3)CC2)c1C	>57	?
93	CCOC(=O)C1(CC)NC(c2ccco2)C2C(=O)N(c3ccc(C)cc3)C(=O)C21 (stereo not drawn)	>57	i
94	COc1ccc(-n2nnc3c(=O)n(Cc4cc(C)ccc4C)cnc32)cc1	>57	i
95	CCN(CC)C(=O)c1sc(NC(=O)Cc2cccs2)c(C#N)c1C	>57	i
96	C=CCOC(=O)C1=C(C)NC(SC)=C(C#N)C1c1ccc(OCC)cc1 (stereo not drawn)	>57	i
97	CC(Sc1nc(N2CCOCC2)c2c(c1C#N)CC(C)(C)OC2)C(=O)Nc1ccccc1 (stereo not drawn)	>57	i
98	CN(Cc1ccccc1)C(=O)c1ccc2c(c1)OCO2	>57	i
99	COc1ccc2[nH]c(=O)c(CN(CCCN3CCOCC3)C(=O)NCc3ccccc3)cc2c1	>57	i
100	CCOC(=O)c1cc(C#N)c(SCC(=O)c2cc(C#N)c(SC)nc2C)nc1C	>57	i
101	CC1=C(C(=O)OC(C)C)C(c2c[nH]c3ccccc23)n2ncnc2N1 (stereo not drawn)	·	i
102	CCS(=O)(=O)CCSc1nc(C)cc(C)c1C#N	>57	i
103	O=C(COC(=O)c1ccc(S(=O)(=O)N2CCCC2)cc1)NCc1ccccc1	>57	i
104	CCOC(=O)[C@H](CCc1ccccc1)N[C@@H](C)C(=O)N1CCC[C@H]1C(=O)O	>25.6	i
105	Cc1onc(-c2c(Cl)cccc2Cl)c1C(=O)Nc1ccc2c(c1)OCO2	·	i
106	O=C(C1CCN(S(=O)(=O)c2cccc3nsnc23)CC1)N1CCN(c2ccccc2F)CC1	>57	i
107	c1ccc(NCc2nnc3n2CCCCC3)cc1	>57	i
108	O=C1CCCC(O)=C1C1C2=C(CCCC2=O)Oc2ccccc21 (stereo not drawn)	·	i
109	Nc1cccc(C(F)(F)F)c1	·	i
110	CC(=O)Nc1c(O)n(C)c2ccccc12	>57	i
111	CC(C)c1nnc(NC(=O)C2CCN(c3nc4ccccc4s3)CC2)s1	>57	i
112	c1ccc2c(NC3CC3)nc(-c3ccoc3)nc2c1	·	i
113	Cc1ccc(S(=O)(=O)N2CCN(Cc3cccc(C)c3O)CC2)cc1	·	i
114	O=C(Nc1cccc(Oc2ccc3c(c2)C(=O)NC3=O)c1)c1ccco1	?	i
115	Cc1ccc(S(=O)(=O)NC(C)C(c2cccs2)N2CCN(C)CC2)cc1 (stereo not drawn)	>57	i
116	Cc1ccc(NC(=O)CS(=O)CC(=O)NCCCN(C)c2ccccc2)cc1 (stereo not drawn)	>57	i
117	Cc1ccc(NC(=O)C2CCCN(S(=O)(=O)c3ccc4c(c3)oc(=O)n4C)C2)nc1 (stereo not drawn)	·	i
118	CCCOc1ccc(CCN2CCC(=O)NC2=O)cc1C	·	i
119	CC(=O)c1cccc(N=C2NC(=O)C(CO)(CO)S2)c1	>11.4	·

# 5 entries from above, with values ahead of the structure:
entry	Bst PK mod	TsaE inh	Structure
114	?	i	O=C(Nc1cccc(Oc2ccc3c(c2)C(=O)NC3=O)c1)c1ccco1
115	>57	i	Cc1ccc(S(=O)(=O)NC(C)C(c2cccs2)N2CCN(C)CC2)cc1 (stereo not drawn)
116	>57	i	Cc1ccc(NC(=O)CS(=O)CC(=O)NCCCN(C)c2ccccc2)cc1 (stereo not drawn)
117	·	i	Cc1ccc(NC(=O)C2CCCN(S(=O)(=O)c3ccc4c(c3)oc(=O)n4C)C2)nc1 (stereo not drawn)
118	·	i	CCCOc1ccc(CCN2CCC(=O)NC2=O)cc1C
